Screens deposited in PubChem BioAssay by National Center for Advancing Translational Sciences (NCATS).
TRPML1 agonist: agonists of human TRPML1 channel; activation, % (no concentration beside the values); TRPML1-expressing cells, Ca2+ dye fluorescence, FDSS; host cell line not named in the record; reference of the full effect not given here; AID 624414; 410,000 compounds, 0.12% hits; in the data active = activation above about 50%; inconclusive = about 30% to 50%; inactive = below about 30%; note: 0% is about no effect; the text of the record puts the active cut at 80%
Target sequence (Q9GZU1 whole entry, looked up): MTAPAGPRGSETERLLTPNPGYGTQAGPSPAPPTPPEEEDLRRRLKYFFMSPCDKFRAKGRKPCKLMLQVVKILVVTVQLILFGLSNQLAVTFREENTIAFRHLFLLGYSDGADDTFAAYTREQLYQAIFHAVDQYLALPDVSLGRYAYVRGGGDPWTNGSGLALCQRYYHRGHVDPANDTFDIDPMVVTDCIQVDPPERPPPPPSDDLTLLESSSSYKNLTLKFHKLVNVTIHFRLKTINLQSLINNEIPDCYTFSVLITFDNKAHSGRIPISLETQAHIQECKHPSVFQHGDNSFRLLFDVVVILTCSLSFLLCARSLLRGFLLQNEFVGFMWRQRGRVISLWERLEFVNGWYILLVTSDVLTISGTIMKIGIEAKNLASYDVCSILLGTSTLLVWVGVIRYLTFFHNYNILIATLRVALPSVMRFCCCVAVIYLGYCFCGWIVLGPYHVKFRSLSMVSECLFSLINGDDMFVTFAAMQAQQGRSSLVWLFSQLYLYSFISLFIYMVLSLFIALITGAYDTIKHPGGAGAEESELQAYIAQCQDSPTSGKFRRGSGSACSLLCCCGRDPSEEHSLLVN
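In this qHTS format, compounds were pin-transferred onto Ca8-dye-loaded TRPML1-DL cells induced with Tet overnight, and intracellular Ca2+ fluorescence was recorded kinetically for 110 s after a 10 s baseline. A subsequent 4uM final 54-4 (EC80) addition followed by a second 110 s read served as the antagonist phase.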
TRPML1 inh: blocks the human TRPML1 channel | TRPML1-inducible cells, Ca2+ dye fluorescence, FDSS; stronger effect = lower value; inhibition of EC80 agonist-evoked calcium signal | AID 624415 | Q9GZU1 | 390,000 compounds, 0.02% hits | activity change, negative = inhibition, % (no concentration beside the values); in the data active means activity change below about -50%; inconclusive means about -30% to -50%; inactive means above about -30%;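 note: stimulus is agonist 54-4 at its EC80 concentration; % is set by controls: 0 for no effect and ±100 for the full control effect; compound concentration not given in the record; the text of the record puts the active cut at -80%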
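TRPML1-DL cells, Tet-induced overnight (~16 h, 37 °C) at 1,500 cells/well, were loaded with Ca8 no-wash dye plus quencher for 45-90 min at room temperature. Compounds were pinned during FDSS kinetic reading; agonist 54-4 at EC80 (4 uM final) then added.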
An asterisk follows results filed as active; ? = inconclusive.

The line under a structure holds: TRPML1 agonist, TRPML1 inh
Cc1ccccc1CNC(=O)C(=O)NCC(c1cccs1)S(=O)(=O)c1ccc(Cl)cc1 (stereo not given)
    0.3, 26
COc1ccc(C2=NC3(CCCCC3)N(CC(=O)Nc3ccc(C(C)C)cc3)C2=O)cc1
    0.5, 9
COc1ccc(-c2nc3scc(CCNS(=O)(=O)c4ccc(NC(C)=O)cc4)n3n2)cc1
    3.1, -11
COc1ccccc1Cn1cc(C(=O)c2ccc(Cl)cc2)c(=O)c2ccccc21
    0.9, 8
COc1ccc(Cn2c(CNC(=O)Cc3ccc(OC)c(OC)c3)nc3cccnc32)cc1
    -0.9, -7
CC1Cn2c(C(=O)NCc3ccccc3Cl)cc3cccc(c32)S1 (stereo not given)
    1.7, 7
COc1ccc(Br)cc1CNC(=O)Cn1c(=O)c2cccn2c2ccc(F)cc21
    1.0, 9
O=C(NC1CCCCC1)c1cc(Nc2ccccc2)nc2ccccc12
    1.1, -2
COc1ccc(C(c2c(O)cc(C)n(Cc3ccco3)c2=O)N2CCCCC2)cc1OC (stereo not given)
    0.3, 7
Cc1nc(SCC(=O)Nc2ccccc2Cl)cc(-c2ccccc2)n1
    3.7, 29
Cc1ccccc1C(=O)Nc1ccc2nc(SCC(=O)N(C)c3ccccc3)sc2c1
    2.4, 19
CC(=O)Nc1ccc(OCc2cc(=O)n3ccccc3n2)cc1
    0.7, -16
Cc1cccc(N(C)S(=O)(=O)c2cc3[nH]c(=O)c(=O)[nH]c3cc2C)c1
    4.4, 22
O=C(Nc1ccc2nc3n(c(=O)c2c1)CCCCC3)C(=O)Nc1ccccc1F
    2.0, -10
COC(=O)c1cc2oc3ccccc3c2n1CC(=O)Nc1cc(OC)cc(OC)c1
    -0.4, 1
CC(=O)Nc1c(C)nn(-c2ccccc2)c1N1CCC(C(=O)NCc2ccc(F)cc2)CC1
    -0.7, 20
Cc1ccc(C(=O)N2c3ccc(C)cc3C(C)(c3ccccc3)CC2(C)C)cc1 (stereo not given)
    2.1, 70
Cc1cccc(-n2c3nc(=O)n(C)c(=O)c-3cc3ccc(Cl)cc32)c1C
    0.3, -3
COc1cccc(CNC(=O)C2CCCN(S(=O)(=O)c3ccc4c(ccn4C)c3)C2)c1OC (stereo not given)
    1.0, 2
CN(CC(=O)NCc1ccccc1)S(=O)(=O)c1ccc2[nH]c3c(c2c1)CCCC3
    2.2, 7
Cn1nc(-c2ccccc2F)c2cc(C(=O)NCCc3ccc(Cl)cc3)sc21
    -0.3, -5
Cc1ccc(NC(=O)C(=O)NCC(c2cccnc2)N2CCc3ccccc3C2)cc1 (stereo not given)
    -0.4, -7
CCc1cccc(OCC(=O)Nc2ccc(S(=O)(=O)Nc3cc(C)nc(C)n3)cc2)c1
    3.1, -11
Cc1ccc(-n2c(=O)c3oc4ccccc4c3n(Cc3ccccc3F)c2=O)cc1C
    3.3, -14
Cc1cccc(Cn2c(=O)n3nc(-c4ccccc4)nc3c3ccccc32)c1
    0.0, 2
Cc1cc(OC(=O)c2cc(-c3ccc4c(c3)OCCO4)on2)ccc1Cl
    -0.3, -8
CCc1cccc(C)c1NC(=O)C(CC)n1nc(C)c2c(C)n(-c3ccccc3)nc2c1=O (stereo not given)
    -0.5, 0
COc1ccc(-c2noc(N3CCC(C(=O)N(C)c4cc(Cl)ccc4OC)CC3)n2)cc1
    0.4, 11
COc1ccc(CCC(=O)NCc2ccc3c(c2)CCN3C(=O)c2ccc(F)cc2)cc1
    0.4, -25
CC(C)(C)n1ncc2c(=O)n(Cc3ccc(F)cc3F)cnc21
    0.9, 2
CCCCCn1c(=N)c(S(=O)(=O)c2ccccc2)cc2c(=O)n3cccc(C)c3nc21
    1.0, -17
CCOC(=O)c1cccc(Nc2nc(C(=O)OCC)nc3ccccc23)c1
    0.4, -6
Cc1cc(C)cc(NC(=O)CSc2cc(C)[nH]c(=O)n2)c1
    -0.4, -6
NC(=O)CSc1nc2c(oc3ccccc32)c(=O)n1Cc1ccccc1
    -0.5, ?
COCc1cc(C)nc2c1C(=O)NC(c1ccc(NC(C)=O)cc1)N2Cc1ccccc1 (stereo not given)
    3.8, 13
COc1ccc2c(c1)c1c(c(=O)n(-c3ccccc3)c(=O)n1CC(=O)NCc1ccc(C)cc1)n2C
    0.6, -2
CCN1C(=O)c2ccccc2S(=O)c2ccc(C(=O)N3CCN(c4cccc(C)c4)C(C)C3)cc21 (stereo not given)
    -1.1, -5
CCOC(=O)N1CCc2c(sc(NCc3cccc(F)c3)c2C(=O)Nc2ccc(OCC)cc2)C1
    -0.1, 3
O=C(Cn1c(SCc2cccc(F)c2)nc2ccncc21)Nc1ccc(Cl)cc1F
    -0.8, 22
CCc1cccc(C)c1Nc1c(-c2ccsc2)nc2ncccn12
    0.8, 6

Reprinted from the part before: four compounds, followed by the next part.
The line under a structure holds: TRPML1 agonist, TRPML1 inh
CCN1C(=O)c2ccccc2S(=O)c2ccc(C(=O)N3CCN(c4cccc(C)c4)C(C)C3)cc21 (stereo not given)
    -1.1, -5
CCOC(=O)N1CCc2c(sc(NCc3cccc(F)c3)c2C(=O)Nc2ccc(OCC)cc2)C1
    -0.1, 3
O=C(Cn1c(SCc2cccc(F)c2)nc2ccncc21)Nc1ccc(Cl)cc1F
    -0.8, 22
CCc1cccc(C)c1Nc1c(-c2ccsc2)nc2ncccn12
    0.8, 6
COCCn1c(C)cc(O)c(C(c2ccccc2Cl)N2CCCCC2)c1=O (stereo not given)
    2.1, 5
CC(C)CCNC(=O)CCCn1c(=O)c2cccn2c2ccccc21
    2.6, 6
Cc1cccc(C)c1NC(=O)N1CCC(C(N)=O)(N2CCCCC2)CC1
    0.9, -9
CN1C(C(=O)c2ccccc2)=C(OC(=O)c2ccc(Br)cc2)c2ccccc2S1(=O)=O
    -0.5, -1
Cc1ccc(NC(=O)Cn2c(=O)n(Cc3ccc4c(c3)OCO4)c(=O)c3ccccc32)c(C)c1
    -0.5, -6
O=C(c1cc2cc3ccc(Cl)cc3nc2o1)N1CCN(c2cccc(Cl)c2)CC1
    -0.4, 3
CCn1c(CNC(=O)C23CC4CC(CC(C4)C2)C3)nnc1SCC(=O)Nc1ccccc1
    0.7, 0
Cn1c(=O)cc(OCC(=O)N2CCN(c3ccc(F)cc3)CC2)c2ccccc21
    -0.7, 36
COc1ccc(CNC(=O)CSc2nc(-c3ccc(OC)cc3)cc(C(F)(F)F)n2)cc1
    -0.2, 15
Cc1ccc(CN(C(=O)COc2ccc(Cl)cc2Cl)C2CCS(=O)(=O)C2)o1 (stereo not given)
    0.4, 17
Cc1cccc(C(=O)Nc2ccc(-c3nc4ncccc4o3)cc2C)c1
    -0.1, -6
O=C(NCCc1ccc(Cl)cc1)c1ccc2c(c1)N(Cc1c(F)cccc1Cl)C(=O)CS2
    0.3, -2
N#C/C(=C\c1ccc(Cl)cc1Cl)c1nc(-c2cccc(Cl)c2)cs1
    0.0, -9
CCOc1ccc(NC(=O)c2ccc3c(SCC(=O)O)c4c(nc3c2)CCC4)cc1
    -0.9, -3
CCOc1ccc(-c2nn(CC(=O)NC3CCCC3)c3c2cnc2ccc(C)cc23)cc1
    0.1, 2
CCOCc1cc(CN2CCN(c3cccc(Cl)c3)CC2)c(O)c2ncccc12
    1.0, 8
COC(=O)c1ccccc1NC(=O)Cn1c(=O)nc(-c2ccccc2)c2cc(Cl)ccc21
    2.2, 21
Cc1cc(C)c(S(=O)(=O)NCCS(=O)(=O)N2CCN(c3ccccc3)CC2)c(C)c1
    2.4, 33
Cc1cc(OCCn2c(C3CC(=O)N(Cc4ccc(F)cc4)C3)nc3ccccc32)ccc1Cl (stereo not given)
    -0.2, 6
Cc1ccc(N(C)S(=O)(=O)c2ccc3[nH]c(=O)ccc3c2)cc1
    -0.6, 5
CCCCn1cc(S(=O)(=O)c2ccc(C)cc2)c(=O)c2cc(F)c(N3CCCCC3)cc21
    1.8, 13
O=C(NCc1ccccc1Cl)C1CCC(CNS(=O)(=O)c2ccc(Cl)cc2)CC1 (stereo not given)
    2.6, -2
COc1cccc(NC(=O)Cn2c(=O)n(CCC(=O)NCCc3ccc(Cl)cc3)c(=O)c3ccccc32)c1
    -0.9, 7
COc1ccc(-c2noc(CCC(=O)NCc3ccc(OC)cc3OC)n2)cc1
    0.5, 26
Cc1ccc(C)c(NC(=O)Cn2c(=O)n(Cc3ccc4c(c3)OCO4)c(=O)c3ccc(C(=O)NC4CCCCC4)cc32)c1
    0.9, -19
CCN1C(=O)C2(c3ccccc31)c1c(oc3ccc(C)cc3c1=O)C(=O)N2CCCOC(C)C (stereo not given)
    0.1, 7
CC(=O)N1CCCc2ccc(NC(=O)c3ccc(OC(C)C)cc3)cc21
    2.9, 25
COc1cccc2c1Oc1nc(-c3ccccc3)nc(SCC(=O)Nc3ccccc3)c1C2
    -1.0, -14
CCOc1ccccc1NC(=O)c1cnn2c(C(F)F)cc(-c3ccccc3)nc12
    -1.0, 15
Cc1nc2ccc(S(=O)(=O)CCC(=O)Nc3ccc(C)c(C)c3)cc2s1
    1.1, -3
CCCOC(=O)CSc1ncnc2sc3c(c12)CCC(C)C3 (stereo not given)
    0.1, 12
O=C(Cn1cc2c(n1)CCCC2)Nc1cc(C(F)(F)F)ccc1Cl
    0.5, -7
CC1CCN(C(=O)CSc2c3c(nc4ccc(Cl)cc24)CCCC3)CC1
    2.2, -10
COCCCNc1nc(NCc2cccc(Cl)c2)c2cnn(C)c2n1
    1.7, 1
COC(=O)c1nnn(-c2ccc(Br)cc2)c1C(=O)OC
    -0.2, -6
Cc1ccc(C(=O)c2cn(Cc3ccccc3)c3ccccc3c2=O)cc1
    1.1, -11
CCOc1ccc(OCC)c(NS(=O)(=O)c2c(C(=O)N3CCC(C)CC3)c(C)n(C)c2C)c1
    1.4, 6
O=C(COc1ccccc1F)Nc1nnc(S(=O)(=O)N2CCCCCC2)s1
    0.4, 5
CC(=O)c1ccc(N2CCN(C(=O)CCc3nnc4n(C)c(=O)c5sccc5n34)CC2)cc1
    0.1, 27
Cc1noc2ncnc(N3CCCC(C(=O)NC(C)C)C3)c12 (stereo not given)
    0.7, 4
Cc1ccc(S(=O)(=O)NCCc2csc(-c3ccc(Cl)cc3)n2)cc1
    0.1, 6
Cc1cccc(N2CCN(c3nc4ccccc4c(=O)n3-c3ccc(Cl)cc3)CC2)c1C
    0.2, 6
O=c1c2oc3ccccc3c2n(Cc2ccccc2Cl)c(=O)n1Cc1ccco1
    0.6, 4
Cc1cccc(C)c1OCc1cc(=O)n2c(-c3ccccc3)csc2n1
    0.6, 4
Cc1cc2c(cc1S(=O)(=O)N(C)CC(=O)Nc1cccc(C#N)c1)OCC(=O)N2
    1.0, -4
COc1cc(C(=O)OCc2cc(=O)n3nc(C4CCCCC4)sc3n2)cc(OC)c1OC
    0.2, -4
COc1cccc(-n2cc(C(=O)NCc3ccccc3OC)c3ccccc3c2=O)c1
    0.5, -1
CCOc1ccc(-n2cc(-c3ccccc3)c3c(NC4CCCC4)ncnc32)cc1
    1.2, 5
CCOC(=O)c1ccccc1NC(=O)N1CCC(CN2CCCCC2)CC1
    0.2, 23
O=C(NCc1cccc(Br)c1)c1cccn1-c1nnc(N2CCCCC2)s1
    1.3, -4
O=C(NCCSc1c[nH]c2ccccc12)c1ccccc1Cl
    0.3, -11
Cc1nc2c(-c3ccccc3)c(C)nn2c(C)c1CCC(=O)NC(C)c1ccccc1 (stereo not given)
    -1.4, -24
Cc1ccc(NC(=O)C(=O)NCCc2sc(-c3ccc(Cl)cc3)nc2C)cc1C
    1.4, 10
COc1ccc(-c2nnc(SCc3cccc(Cl)c3)o2)cc1
    4.1, 2
CCC1=Nc2cc(C(=O)NCCCOC(C)C)ccc2Sc2ccc(C)cc21
    1.9, 38
O=C(Cn1cc(SCc2ccccc2)c2ccccc21)N1CCCCC1
    -0.5, 7
Cc1ccc(C)c(NC(=O)c2cc(=O)c3cc(C)cc(C)c3o2)c1
    -0.2, -8
COc1ccc(C)cc1NC(=O)c1sc2nc(-c3ccc(F)cc3)cn2c1C
    2.8, -20
CCOc1ccc(CNC(=O)c2cnc(SC)nc2CC)cc1
    0.8, -5
COc1ccc(/C=C/C(=O)Nc2ccc(Cl)c(Cl)c2)cc1OC
    3.2, -11

The list is partial. The share of hits here may be higher or lower than overall.
